Lassa entry inh = blocks Lassa virus binding to or entry into cells; Potency, µM (titrated, usually from 37.9 µM), inactives show top-dose activity change, negative = inhibition, actives largely listed as inhibitors; Lassa virus pseudotype entry inhibition, cell reporter; control for the full effect not named in the record; AID 540256; 1.2% of 300,000 active; active means well fitted inhibition curve with a large enough effect; inconclusive means small, poorly fitted or top-dose-only effect, or effect the other way; inactive means flat fitted curve, though single readings scatter; tested in HEK293 cells; note: % is set by controls: 0 for no effect and ±100 for the full control effect; nearly all actives have a fitted effect of over 50% in size; luciferase read-out
Cruzain inh Det = inhibitors of Trypanosoma cruzi cruzain with detergent. purified cruzain, Z-FR-AMC fluorescence, 0.01% Triton. Potency, µM, without a hit: max response, negative = inhibition, hits mostly inhibitors. 0.43% of 200,000 active. AID 1478;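 note: plate controls were neutral wells for no effect and buffer without enzyme for full effect; nearly all actives have a fitted effect of over 40% in size; top concentration of the series not given in the record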
Target sequence (P25779 123-467 limits assumed): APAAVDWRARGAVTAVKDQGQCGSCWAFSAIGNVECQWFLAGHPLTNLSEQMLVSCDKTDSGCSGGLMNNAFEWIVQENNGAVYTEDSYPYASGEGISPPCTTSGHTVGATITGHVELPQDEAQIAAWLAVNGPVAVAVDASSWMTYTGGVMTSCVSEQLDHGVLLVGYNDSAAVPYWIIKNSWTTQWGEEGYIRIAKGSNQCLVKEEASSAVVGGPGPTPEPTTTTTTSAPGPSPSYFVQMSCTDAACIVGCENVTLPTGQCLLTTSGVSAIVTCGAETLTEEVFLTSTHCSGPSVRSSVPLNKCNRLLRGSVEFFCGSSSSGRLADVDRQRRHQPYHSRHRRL
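Read-out: AMC fluorescence (360 nm excitation, 450 nm emission), four reads over 2 min, first-to-third difference used. Conditions: cruzain 1.5 nM, Z-FR-AMC 2 uM, pH 5.5 acetate, 5 mM DTT, 0.01% Triton X-100.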
SARS PLpro yeast = inhibitors of SARS-CoV papain-like protease in yeast. Potency, µM (series often up to 32.9 µM), for inactives: at the top dose activity, positive = growth rescue. S. cerevisiae expressing SARS-CoV PLpro, growth rescue; control for the full effect not named in the record. AID 485353. 0.19% of 330,000 active; active means well fitted rising curve with a large enough effect; inconclusive means small, poorly fitted or top-dose-only effect; inactive means no such curve, though single readings can be large or run the other way; note: 0% is about no effect; nearly all actives have a fitted effect of over 55% in size; growth read by luminescence after 48 h
Cruzain noTriton = cruzain (T. cruzi) inhibition without detergent; P25779; purified cruzain, Z-FR-AMC fluorescence, no detergent; Potency, µM, inactives show max response, negative = inhibition, most hits filed as inhibitors; 2.3% of 200,000 active;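 note: plate controls were enzyme without inhibitor for no effect and buffer without enzyme for full effect; nearly all actives have a fitted effect of over 40% in size; top concentration of the series not given in the record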
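Detergent-free condition (0.00005% Triton X-100) in acetate buffer pH 5.5 with DTT. 1.5 nM enzyme and compound were pre-mixed 15 min, then 2 uM Z-FR-AMC substrate added; reaction progress from fluorescence change between first and third reads (60 s).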
RE007 growth inh = less growth of the S. pombe RE007 Vpr strain; S. pombe RE007 Vpr strain, BacTiter-Glo ATP luminescence, 24 h; control for the full effect not named in the record; Potency, µM (highest dose often 92.2 µM), without a hit: at the highest dose activity change, negative = less growth; 0.21% of 360,000 active; AID 651644; active = well fitted falling curve with a large enough effect; inconclusive = small, poorly fitted or top-dose-only effect; inactive = no such curve, though single readings can be large or run the other way;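 note: % is set by controls: 0 for no effect and ±100 for the full control effect; nearly all actives have a fitted effect of over 50% in size; the assay follows cell death caused by Vpr and the record does not say whether a fall means rescue or toxicity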
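Fission yeast RE007 carrying one integrated HIV-1 vpr copy, seeded at OD 0.01 in PMG+AL medium with 23 nL pinned compound. Grown 24 h at 30 degrees; viability read by BacTiter-Glo luminescence after 5 min.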
NS1 inh = influenza NS1 inhibition; S. cerevisiae slowed by influenza A NS1, growth recovery by OD600; Potency, µM (titrated, usually from 46.1 µM), inactives show at the highest dose activity, positive = more growth; 0.4% of 270,000 active; active means well fitted rising curve with a large enough effect; inconclusive means small, poorly fitted or top-dose-only effect; inactive means no such curve, though single readings can be large or run the other way; note: nearly all actives have a fitted effect of over 50% in size
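A cell-based growth assay was used: compounds that relieve NS1-induced slow growth of budding yeast raise OD600. Assay medium was yeast nitrogen base with ammonium sulphate and -URA supplement, pH 6.0, with 2% galactose.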
MARV entry inh = blocks Marburg virus binding to or entry into cells. Marburg virus pseudotyped entry inhibition, cell reporter; control for the full effect not named in the record; about a third of the inactives were read at about 46 µM. Potency, µM (titrated, usually from 37.8 µM), for inactives: at the highest dose activity change, negative = inhibition, hits mostly inhibitors. 1.8% of 300,000 active; active = well fitted inhibition curve with a large enough effect; inconclusive = small, poorly fitted or top-dose-only effect, or effect the other way; inactive = flat fitted curve, though single readings scatter; tested in HEK293 cells; about a fifth of its hits are not listed in these tables; note: % is set by controls: 0 for no effect and ±100 for the full control effect; luciferase read-out
2A StopGo = FMDV 2A StopGo reporter, luciferase signal; human cells with a luciferase reporter of 2A StopGo recoding; control for the full effect not named in the record; Potency, µM (series often up to 57.9 µM), inactives show at the top dose signal change, negative = less light; 1.2% of 410,000 active; AID 1159524; active = well fitted falling curve with a large enough effect; inconclusive = small, poorly fitted or top-dose-only effect; inactive = no such curve, though single readings can be large or run the other way; tested in HEK293T cells; note: % is set by controls: 0 for no effect and ±100 for the full control effect; nearly all actives have a fitted effect of over 45% in size; luciferase light after 4 h
Starred values were filed as active, the others as inactive; [ ] = another dose, or the depositor's remark. Unless noted, calls come from the whole dose curve; as a rule, active = well fitted curve in the direction sought with a large enough effect; inconclusive = small, poorly fitted or top-dose-only effect, or another doubt; inactive = no such curve, though single readings can be large; an effect the other way counts as inactive or inconclusive. Potency is the fitted concentration of half-maximal effect. Outcome played no part in choosing rows. About 4.8% of those tested had a hit in this group.

What do the screens show for `O=C(Cn1cc2c(n1)CCCCC2)NCCN1CCOCC1`?
Lassa entry inh: 1%; Cruzain inh Det: 0.3%; SARS PLpro yeast: -21%; Cruzain noTriton: 1%; RE007 growth inh: 11%; NS1 inh: 1%; MARV entry inh: 0%; 2A StopGo: -22%

How did Cc1ccc(NC(=O)CCS(=O)(=O)c2ccc(Br)cc2)c(C)c1 do in these assays?
Lassa entry inh: 4%[46.1 µM]; Cruzain inh Det: 1.4%; Cruzain noTriton: 0%; 2A StopGo: -8%

How did COC(=O)CN1C(=O)CN=C(c2ccccc2Cl)c2cc(Br)ccc21 do in these assays?
Lassa entry inh: -3%[46.1 µM]; SARS PLpro yeast: 4%; RE007 growth inh: -6%; NS1 inh: -7%; MARV entry inh: inconclusive; 2A StopGo: -16%

How did CCOc1ccc2c(C)c(C)c(=O)oc2c1OCC do in these assays?
Lassa entry inh: -1%; Cruzain inh Det: -0.5%; SARS PLpro yeast: 4%; Cruzain noTriton: -28%; RE007 growth inh: -9%; NS1 inh: -85%; MARV entry inh: -13%; 2A StopGo: 3%

Results for COc1ccccc1CNC(=O)CCCN1C(=O)CCn2nc(-c3cn(C)c4ccccc34)cc21 ?
Lassa entry inh: -20%[46.1 µM]; Cruzain inh Det: -3.5%; Cruzain noTriton: inconclusive; 2A StopGo: inconclusive

How did O=C1C=CC(O)(c2cc(=O)c3c(O)cc(O)cc3o2)C=C1 do in these assays?
Lassa entry inh: inconclusive; Cruzain inh Det: -5.0%; SARS PLpro yeast: -7%; Cruzain noTriton: -1%; RE007 growth inh: 2%; NS1 inh: inconclusive; MARV entry inh: inconclusive; 2A StopGo: 18µM*

Results for COc1ccccc1COC(=O)N/C=C/c1ccco1 ?
Lassa entry inh: inconclusive; SARS PLpro yeast: -3%; RE007 growth inh: -18%; MARV entry inh: -2%[46.1 µM]; 2A StopGo: 20%

How did CC(C)N(Cc1cc2ccccc2[nH]c1=O)C(=O)C1CCCCC1 do in these assays?
Lassa entry inh: 5%; Cruzain inh Det: 1.9%; SARS PLpro yeast: -5%; Cruzain noTriton: -1%; RE007 growth inh: -1%; NS1 inh: 3%; MARV entry inh: -2%; 2A StopGo: -7%

Results for O=C1c2ccccc2-c2nc3ncnn3c(-c3ccccc3Cl)c21 ?
Cruzain inh Det: -0.1%; SARS PLpro yeast: 4%; Cruzain noTriton: -10%; RE007 growth inh: 13%; NS1 inh: -6%; 2A StopGo: -23%

What do the screens show for `O=C(O)CC1SC(=Nc2cccc(O)c2)NC1=O` (stereo not drawn)?
Lassa entry inh: 27%; Cruzain inh Det: 2.1%; SARS PLpro yeast: -1%; Cruzain noTriton: -2%; RE007 growth inh: -5%; NS1 inh: 16%; MARV entry inh: 1%; 2A StopGo: 6%

What do the screens show for `CCCn1c(=O)[nH]c(=O)c2c1nc(-c1ccccc1OC(F)F)n2CCOC`?
Lassa entry inh: -17%; Cruzain inh Det: 1.2%; SARS PLpro yeast: 3%; Cruzain noTriton: 4%; RE007 growth inh: 12%; NS1 inh: -2%; MARV entry inh: -10%; 2A StopGo: 5%

What do the screens show for `CC(C)C[C@H](NC(=O)Nc1cccc(Cl)c1)C(=O)O`?
Lassa entry inh: 10%; Cruzain inh Det: 2.9%; SARS PLpro yeast: -5%; Cruzain noTriton: -10%; RE007 growth inh: 15%; NS1 inh: 4%; MARV entry inh: 23%; 2A StopGo: 0%

The last 2 records of the part above come first, to join the parts.
What do the screens show for `CCCn1c(=O)[nH]c(=O)c2c1nc(-c1ccccc1OC(F)F)n2CCOC`?
Lassa entry inh: -17%; Cruzain inh Det: 1.2%; SARS PLpro yeast: 3%; Cruzain noTriton: 4%; RE007 growth inh: 12%; NS1 inh: -2%; MARV entry inh: -10%; 2A StopGo: 5%

What do the screens show for `CC(C)C[C@H](NC(=O)Nc1cccc(Cl)c1)C(=O)O`?
Lassa entry inh: 10%; Cruzain inh Det: 2.9%; SARS PLpro yeast: -5%; Cruzain noTriton: -10%; RE007 growth inh: 15%; NS1 inh: 4%; MARV entry inh: 23%; 2A StopGo: 0%

What do the screens show for `COc1ccc(Oc2ccc(NC(=O)c3ccccc3C)cc2)cc1`?
Lassa entry inh: inconclusive; SARS PLpro yeast: 0%; RE007 growth inh: 4%; NS1 inh: 2%; MARV entry inh: -13%[46.1 µM]; 2A StopGo: -14%

How did CCOc1ccc(Nc2nc(N3CCOCC3)nc(N3CCOCC3)n2)cc1 do in these assays?
Lassa entry inh: inconclusive; SARS PLpro yeast: 1%; RE007 growth inh: -7%; NS1 inh: -10%; MARV entry inh: inconclusive; 2A StopGo: -24%

Results for CCC(C)(C(=O)NC1CCCCC1)N(Cc1cccs1)C(=O)c1ccccn1 (stereo not drawn) ?
Lassa entry inh: -4%; SARS PLpro yeast: 3%; RE007 growth inh: -7%; MARV entry inh: -18%[46.1 µM]; 2A StopGo: 0%

Results for O=C1CN(C(=O)COc2cccc(F)c2)c2ccccc2N1 ?
Cruzain inh Det: 0.2%; SARS PLpro yeast: -13%; Cruzain noTriton: -3%; NS1 inh: 10%

What do the screens show for `CCCc1cnc(N2CCN(C(=O)c3ccc(OC)cc3)CC2)nc1`?
Lassa entry inh: 14%; SARS PLpro yeast: -1%; RE007 growth inh: -9%; NS1 inh: -7%; MARV entry inh: -21%; 2A StopGo: -21%

How did Cc1nn(C)c(Cl)c1/C=N/OC(=O)c1ccc(F)cc1 do in these assays?
SARS PLpro yeast: -1%; RE007 growth inh: -9%; NS1 inh: -6%; 2A StopGo: -2%

Results for N#Cc1nc(-c2ccc(OCc3ccccc3)cc2)oc1N1CCOCC1 ?
Lassa entry inh: -1%; Cruzain inh Det: inconclusive; SARS PLpro yeast: 11%; Cruzain noTriton: 23%; RE007 growth inh: -8%; NS1 inh: -49%; MARV entry inh: inconclusive; 2A StopGo: -7%

Results for COc1ccc(-c2cc(C(=O)OCC(=O)N(C)C)c3ccccc3n2)cc1 ?
Lassa entry inh: 1%; Cruzain inh Det: -11%; SARS PLpro yeast: -13%; Cruzain noTriton: inconclusive; RE007 growth inh: inconclusive; NS1 inh: -29%; MARV entry inh: inconclusive; 2A StopGo: 6%

How did CCOC(=O)COc1cc2c(C(=O)OCC)c(C)oc2cc1Br do in these assays?
Lassa entry inh: -11%; Cruzain inh Det: -4.4%; SARS PLpro yeast: 0%; Cruzain noTriton: 28%; RE007 growth inh: 6%; NS1 inh: -10%; MARV entry inh: 9%; 2A StopGo: 13%

Results for Cc1ccc(C)c(N(CC(=O)NCc2ccco2)C(=O)CCC(=O)Nc2nccs2)c1 ?
Lassa entry inh: -14%; SARS PLpro yeast: 0%; RE007 growth inh: -30%; NS1 inh: 6%; MARV entry inh: -24%[46.1 µM]; 2A StopGo: 3%

Results for CCOc1ccc(N(Cc2cc3ccc(C)cc3[nH]c2=O)S(=O)(=O)c2ccccc2)cc1 ?
SARS PLpro yeast: 7%; RE007 growth inh: 1%; NS1 inh: 18%; 2A StopGo: 6%

How did CN(C)S(=O)(=O)c1ccc(Cl)c(NC(=O)CSc2nc3c(cc2C#N)C(=O)CCC3)c1 do in these assays?
Lassa entry inh: -10%; Cruzain inh Det: -4.6%; SARS PLpro yeast: 20%; Cruzain noTriton: inconclusive; RE007 growth inh: 4%; NS1 inh: -4%; MARV entry inh: 0%; 2A StopGo: -16%

What do the screens show for `CCOC(=O)c1cnc2ccc(Cl)cc2c1Nc1ccc(OCC)cc1`?
Lassa entry inh: -5%[46.1 µM]; Cruzain inh Det: -8.0%; Cruzain noTriton: 27%; MARV entry inh: inconclusive; 2A StopGo: -18%

What do the screens show for `CCn1c(O)c(C=NCc2cccs2)c(=O)[nH]c1=O`?
Lassa entry inh: 2%; Cruzain inh Det: 1.9%; SARS PLpro yeast: 3%; Cruzain noTriton: 6%; RE007 growth inh: 1%; NS1 inh: -9%; MARV entry inh: 24%; 2A StopGo: 10%

How did Cc1ccc(CNC(=O)Nc2ccccc2)n1C do in these assays?
Lassa entry inh: 19%[46.1 µM]; SARS PLpro yeast: -1%; RE007 growth inh: -2%; NS1 inh: -3%; MARV entry inh: 9%[46.1 µM]; 2A StopGo: 22%

Results for CCn1ccc2c(OCC(=O)Nc3ccccc3C(F)(F)F)cccc2c1=O ?
Lassa entry inh: inconclusive; Cruzain inh Det: -3.0%; Cruzain noTriton: -4%; 2A StopGo: 32µM*

What do the screens show for `CSc1ccc(CN(C)C(C)C(=O)NCC2CCCCC2)cc1` (stereo not drawn)?
Lassa entry inh: 16%[46.1 µM]; SARS PLpro yeast: 2%; RE007 growth inh: -24%; NS1 inh: 7%; MARV entry inh: 11µM*; 2A StopGo: -6%

Results for CCOC(=O)c1cc(Sc2ccccc2N)cc(C(=O)OCC)n1 ?
Lassa entry inh: -1%; SARS PLpro yeast: 1%; RE007 growth inh: 13%; NS1 inh: 6%; MARV entry inh: 13%[46.1 µM]; 2A StopGo: -6%

How did Cc1ccc(C(=O)Nc2ccccc2N2CCCCC2)o1 do in these assays?
SARS PLpro yeast: -1%; RE007 growth inh: -9%; NS1 inh: -48%; 2A StopGo: inconclusive

Results for CC(=O)Nc1ccc(NC(=O)C(C)OC(=O)CCc2nc3ccccc3s2)cc1 (stereo not drawn) ?
Lassa entry inh: 16%; SARS PLpro yeast: 0%; RE007 growth inh: 16%; MARV entry inh: 12%[46.1 µM]; 2A StopGo: -4%

Results for C=CCSc1nc(N)c(C(=O)Nc2ccccc2C)cc1C(N)=O ?
Lassa entry inh: 21%; Cruzain inh Det: -3.4%; SARS PLpro yeast: 2%; Cruzain noTriton: -3%; RE007 growth inh: 13%; NS1 inh: 0%; MARV entry inh: 1%; 2A StopGo: -19%

Results for CCOc1ccc(OCC)c(Nc2nc3ccccc3n3nnnc23)c1 ?
Lassa entry inh: -7%[46.1 µM]; Cruzain inh Det: -1.2%; Cruzain noTriton: 3%; MARV entry inh: 14%[46.1 µM]; 2A StopGo: -21%

Results for O=C(COC(=O)C1CC2C=CC1C2)NCc1ccccc1Cl (stereo not drawn) ?
Lassa entry inh: -7%; Cruzain inh Det: -6.2%; SARS PLpro yeast: 8%; Cruzain noTriton: 3%; RE007 growth inh: 16%; NS1 inh: -3%; MARV entry inh: 3%; 2A StopGo: -9%
